# Sfp PPTase inh – qHTS Assay for Inhibitors of Bacillus subtilis Sfp phosphopantetheinyl transferase (PPTase) | Biochemical Sfp PPTase activity, qHTS | 310,000 tested, 3.5% active | AID 1490, 2009 | Potency, µM, without a hit: max response, negative = inhibition, actives largely listed as inhibitors; active = well fitted inhibition curve with a large enough effect; inconclusive = small, poorly fitted or top-dose-only effect, or another doubt; inactive = no such curve, though single readings can be large or run the other way;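 note: the enzyme is Sfp with the accession as filed and its product quenches rhodamine fluorescence; potency is the fitted concentration of half-maximal effect; 0% = enzyme reaction without inhibitor and -100% = no enzyme wells; top concentration of the series not given in the record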
#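 After 15 min at room temperature with compound, 15 nM Sfp received 5 uM rhodamine-CoA plus 12.5 uM BHQ-2-ybbR (50 mM Hepes pH 7.6, 10 mM MgCl2). Rate came from the fluorescence difference over 30 min, ex 525/em 598 nm.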
# ClpP mod – qHTS Assay for Activators of ClpP; ATP-dependent Clp protease proteolytic subunit (Bacillus subtilis (strain 168)), P80244; purified B. subtilis ClpP, FRET peptide cleavage, 20 min; Potency, µM (titrated, usually from 57.5 µM), inactives show at the top dose activity change, negative = active; 340,000 tested, 1.9% active; active = well fitted falling curve with a large enough effect; inconclusive = small, poorly fitted or top-dose-only effect; inactive = no such curve, though single readings can be large or run the other way; note: potency is the fitted concentration of half-maximal effect; the source files actives as falling curves though it sought activators and does not explain the sign; nearly all actives have a fitted effect of over 65% in size; many hits overshoot -100%
# Target sequence (P80244 whole entry, looked up): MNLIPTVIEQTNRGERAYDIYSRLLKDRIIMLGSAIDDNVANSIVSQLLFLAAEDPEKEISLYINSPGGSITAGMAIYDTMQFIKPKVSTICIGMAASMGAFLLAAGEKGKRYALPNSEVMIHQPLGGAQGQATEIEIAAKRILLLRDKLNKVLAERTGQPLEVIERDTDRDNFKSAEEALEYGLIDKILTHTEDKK
#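 FRET quenching reversal measured ClpP activation: 10 microg/mL B. subtilis ClpP at pH 8 with the FRET-FV decapeptide, read at 430 nm after 320 nm excitation. The 20-min minus 0-min signal was scaled between DMSO/no-enzyme wells and ADEP (5.8 microM final).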
# TRPV1 potentiator – HTS Assay for Compounds that Act as Potentiators of the Vanilloid Receptor 1 | potentiation, % at 8.33 µM | Transient receptor potential cation channel subfamily V member 1 (Homo sapiens), Q8NER1 | 320,000 tested, 0.02% active | TRPV1-expressing cells, Fluo-8 calcium influx, capsaicin EC20 potentiation; host cell line not named in the record; control for the full effect not named in the record; active means potentiation above 80%; inconclusive means 30% to 80%; inactive means below 30%; note: 0% is about no effect
# Target sequence (Q8NER1 whole entry, looked up): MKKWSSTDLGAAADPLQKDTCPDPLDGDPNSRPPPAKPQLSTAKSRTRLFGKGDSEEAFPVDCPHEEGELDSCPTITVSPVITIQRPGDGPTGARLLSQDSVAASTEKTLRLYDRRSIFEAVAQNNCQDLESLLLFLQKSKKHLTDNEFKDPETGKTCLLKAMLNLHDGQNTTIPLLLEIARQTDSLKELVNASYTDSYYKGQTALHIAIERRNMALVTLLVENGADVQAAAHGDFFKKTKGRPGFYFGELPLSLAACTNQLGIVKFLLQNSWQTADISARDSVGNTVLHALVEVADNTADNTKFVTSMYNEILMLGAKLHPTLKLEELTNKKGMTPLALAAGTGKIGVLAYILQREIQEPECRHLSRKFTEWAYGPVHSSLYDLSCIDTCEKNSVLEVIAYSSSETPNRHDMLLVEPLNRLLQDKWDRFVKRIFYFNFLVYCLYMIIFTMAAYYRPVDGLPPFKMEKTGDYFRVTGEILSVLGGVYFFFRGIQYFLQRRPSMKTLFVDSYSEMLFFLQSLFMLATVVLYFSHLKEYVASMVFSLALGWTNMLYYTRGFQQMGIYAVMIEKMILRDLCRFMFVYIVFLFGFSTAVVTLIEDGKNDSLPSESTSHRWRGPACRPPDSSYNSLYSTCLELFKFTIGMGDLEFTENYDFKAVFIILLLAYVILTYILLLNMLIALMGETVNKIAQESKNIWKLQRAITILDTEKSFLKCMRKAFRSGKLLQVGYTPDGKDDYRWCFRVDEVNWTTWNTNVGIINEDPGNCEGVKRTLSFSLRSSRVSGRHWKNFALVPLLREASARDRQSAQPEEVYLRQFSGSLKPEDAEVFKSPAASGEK
#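 Cells expressing TRPV1 were dye-loaded with Fluo-8 and read kinetically: 10 s baseline, 3 min after compound (agonist portion), then 2 min after EC20 capsaicin (allosteric enhancer portion). Calcium-bound dye fluorescence at 480/520 nm.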
# gsp antagonist – qHTS for Antagonists of gsp, the Etiologic Mutation Responsible for Fibrous Dysplasia/McCune-Albright Syndrome: qHTS. gsp-mutant cells, cAMP HTRF, 30 min; control for the full effect not named in the record. Potency, µM (top dose mostly 76.9 µM), without a hit: at the top dose activity change, negative = inhibition, usual class: inhibitors. 340,000 tested, 0.4% active; active = falling curve of any shape with a large fitted effect; inconclusive = falling curve, mostly with a smaller effect; inactive = flat or rising curve; cell line not stated here;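 note: intracellular cAMP measured with PDE inhibitor Ro 20-1724 present during compound exposure; potency is the fitted concentration of half-maximal effect; % is set by controls: 0 for no effect and ±100 for the full control effect; nearly all actives have a fitted effect of over 65% in size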
#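 Cells, 2000/well, grown 16–24 h in DMEM 10% FBS with 0.5 mg/ml G418, then compounds plus […] (300 uM addition stock), 30 min at 37C. cAMP read by HTRF (cAMP-d2 and anti-cAMP antibody-K in lysis buffer) after 30 min RT.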
# gsp agonist – qHTS for Agonist of gsp, the Etiologic Mutation Responsible for Fibrous Dysplasia/McCune-Albright Syndrome: qHTS | Potency, µM (highest dose often 76.9 µM), for inactives: at the top dose activation (cAMP increase), hits mostly activators | gsp mutant cells, cAMP HTRF, 30 min; control for the full effect not named in the record | 340,000 tested, 0.13% active; active = well fitted activation curve with a large enough effect; inconclusive = small, poorly fitted or top-dose-only effect, or another doubt; inactive = no such curve, though single readings can be large or run the other way; cell line not stated here;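 note: phosphodiesterase inhibitor Ro 20-1724 added with compounds to block cAMP breakdown; potency is the fitted concentration of half-maximal effect; nearly all actives have a fitted effect of over 60% in size; about a fifth of the inactives were tested at one dose only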
#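 Cells stably selected in G418 were plated at 2000/well, grown 16-24 hr, then given compounds in DMSO with the PDE inhibitor […] (300 uM solution added) for 30 min at 37C; cAMP was read by HTRF.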
# CtBP-E1A blk – qHTS Assay for Inhibitors of the CtBP/E1A Interaction; CtBP / adenovirus E1A interaction (AlphaScreen); AlphaScreen GST-E1A/His-CtBP binding, 1536-well; active compounds read low; control for the full effect not named in the record; activity change, % (test concentration not listed); 340,000 tested, 0.49% active; in the data active means activity change below about -65%; inconclusive means about -30% to -65%; inactive means above about -30%; note: % is set by controls: 0 for no effect and ±100 for the full control effect
#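 AlphaScreen with 125 nM GST-E1A and 125 nM His-CtBP (5X stocks) in Tris pH 8.0, 300 mM NaCl, BSA, Tween 20, TCEP. Compounds preincubated 2 h at 37 deg C, then glutathione donor/nickel acceptor beads added for 1 h at 37 deg C in dark.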
# Menin MLL FP FL – qHTS Assay for Inhibitors Targeting the Menin-MLL Interaction in MLL Related Leukemias: Competition With Fluorescein Labeled MLL-derived Peptide; 290,000 tested, under 10 active; Fluorescence polarization, fluorescein-MLL peptide displacement from menin; FP activity change, % at 61.4 µM; inconclusive = falling polarisation curve, or a change in total fluorescence; inactive = total fluorescence flat and polarisation flat or rising; no compound was filed as active; the % refers to the polarisation; negative = inhibition;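 note: % of control where 0% means no effect; inhibitors lower the polarisation; unlabelled MLL peptide was the positive control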
# Starred values were filed as active, the others as inactive; ? = inconclusive; nt = not tested or not shown; [ ] = another dose, or the depositor's remark.
SMILES,Sfp PPTase inh,ClpP mod,TRPV1 potentiator,gsp antagonist,gsp agonist,CtBP-E1A blk,Menin MLL FP FL
COc1ccc(OCC(=O)N2CCOCC2)cc1,12%,-1.4%,-4,-3%,-21%,-20,-0.1
CCOC(=O)/C(C#N)=C/Nc1ccsc1C(C)=O,6%,0.2%,-9,7%,7%[15.4 µM],-5,1.3
COc1cccc(CN(C)C(=O)c2cccc(S(=O)(=O)Nc3cccc(C)c3)c2)c1OC,nt,-0.7%,nt,-18%,2%,-3,nt
COCCNC(=O)C(=O)Nc1ccc(Cl)cc1C,18%,nt,2,nt,-3%[15.4 µM],1,-3.6
CCNc1nc(OC)nc(N(OC)S(=O)(=O)c2ccc(C)cc2)n1,15%,0.4%,22,5%,-1%,2,0.1
Cc1cc(OCC(O)CN(CCO)CCO)ccc1Cl (stereo not drawn),-14%,-1.3%,21,3%,-20%,6,0.9
CC(C)C(C(=O)Nc1ccc2c(c1)OCCOCCOCCOCCO2)N1C(=O)c2ccccc2C1=O (stereo not drawn),4%,nt,-30,5%,4%[15.4 µM],-11,1.1
O=C(NCc1ccccc1Cl)c1ccc2c(=O)n(CCCN3CCCC3=O)c(=S)[nH]c2c1,15%,-1.9%,6,-10%,27%,-6,0.0
COc1cc(/C=C(/NC(=O)c2ccccc2)C(=O)Nc2ccc(O)cc2)c([N+](=O)[O-])cc1OC,3%,-0.4%,1,-8%,-14%,4,2.9
CC(=O)N1c2ccc(S(=O)(=O)NCCC(=O)Nc3ccc(F)cc3)cc2CC1C (stereo not drawn),13%,0.3%,5,-7%,-33%,3,-2.0
Cc1cccn2c(Nc3ccccc3)c(-c3ccccn3)nc12,15%,nt,-5,4%,3%,-23,0.2
CC(C)C(=O)OCCN=C1NS(=O)(=O)c2ccccc21,3%,-1.2%,2,18%,-44%[inhibitor],8,7.1
CCOC(=O)C1=C(CC)OC(N)=C(C#N)C1c1ccc(NC(C)=O)cc1 (stereo not drawn),4%,-7.9%,-1,3%,13%,2,1.8
O=C(N/N=C/C=C\c1cccc([N+](=O)[O-])c1)c1ccccn1,-15%,0.1%,-6,-3%,-14%,3,0.6
Cc1ccc(NC(=S)NCCCN2CCOCC2)cc1,15%,-3.3%,11,13%,-24%,3,4.9
Cc1ccc(C2(C)NC(=O)N(CC(=O)NC(=O)NC3CCCC3)C2=O)cc1 (stereo not drawn),8%,nt,12,nt,nt,nt,5.7
CCCC(=O)Nc1ccc2oc(-c3ccncc3)nc2c1,11%,?,0,-3%,25%,-9,-0.4
COc1ccc([C@H]2CC(=O)C=C(c3ccc(F)cc3OCc3ccccc3)C2)cc1OC,nt,-1.8%,5,-14%,nt,-18,nt
CC(=O)CC(C)=NCCN=C(C)CC(C)=O,21%,-0.6%,1,-17%,23%,3,2.5
O=C(O)/C=C/C(=O)NNC(=O)c1ccc(Cl)cc1Cl,?,nt,2,9%,24%[15.4 µM],nt,3.7
Cc1cc2c(sc3ccccc32)c(C)n1,-5%,0.7%,2,5%,-5%[15.4 µM],13,-1.8
CN(C[C@H](Cc1ccccc1)N(C[C@@H](CC1CCCCC1)N(CCc1ccccc1)N=O)N=O)N=O,-5%,-0.7%,-14,-18%,0%,0,6.9
CCn1nc(C(=O)OCC(=O)c2ccc3c(c2)OCCO3)c2ccccc2c1=O,5%,-2.0%,6,7%,3%,5,?
Cc1ccc(-c2nc(Nc3ccc(N4CCOCC4)cc3)c3ccccc3n2)cc1,-1%,nt,5,-10%,-8%[15.4 µM],-10,3.4
COc1nc(C)c2cc(C)oc2n1,3%,nt,4,-9%,-1%[15.4 µM],0,4.7

# Single records (already shown). Order of values: Sfp PPTase inh, ClpP mod, TRPV1 potentiator, gsp antagonist, gsp agonist, CtBP-E1A blk, Menin MLL FP FL
# Record of `Cc1cc(OCC(O)CN(CCO)CCO)ccc1Cl` (stereo not drawn) : -14%, -1.3%, 21, 3%, -20%, 6, 0.9
# Record of `CCCC(=O)Nc1ccc2oc(-c3ccncc3)nc2c1` : 11%, ?, 0, -3%, 25%, -9, -0.4

# The listing continues.
SMILES,Sfp PPTase inh,ClpP mod,TRPV1 potentiator,gsp antagonist,gsp agonist,CtBP-E1A blk,Menin MLL FP FL
O=C1c2ccccc2-c2cccnc21,12%,-1.4%,10,11%,0%,-18,-0.4
O=S(=O)(c1ccc(F)cc1)N1CCCC(CO)C1 (stereo not drawn),19%,3.7%,-5,3%,-46%[inhibitor],0,2.9
Cc1ccc(C=Nc2cccnc2N)cc1,-14%,4.2%,-2,4%,-14%,nt,?
COc1cc(CN2CCCC(C(=O)N3CCc4ccccc4C3)C2)cc(OC)c1OC (stereo not drawn),-29%,-3.3%,-23,1%,28%,-5,-8.3
CC1CCCC(C)N1CCCNC(=O)CN1C(=O)COc2ccc(S(=O)(=O)N3CCOCC3)cc21 (stereo not drawn),3%,1.5%,3,7%,?,2,-0.3
COc1cccc(C2NC(=O)CCC2[N+](=O)[O-])c1OC (stereo not drawn),12%,nt,3,9%,12%,10,5.3
Cn1c(SCC(=O)N2CCc3ccccc3C2)nnc1-c1cccs1,12%,-1.3%,29,4%,-1%,1,3.3
Cc1ccc(NC(=S)N2CCN(S(=O)(=O)c3c(F)cccc3F)CC2)cc1C,14%,-1.0%,-12,-12%,-94%[inhibitor],nt,-0.7
COc1ccc(NC2=NCC(=O)N2c2ccccc2F)c(OC)c1,-2%,0.9%,8,4%,2%,1,3.5
Cc1ccc(CN(C(=O)c2cc(=O)c3cc(Cl)c(C)cc3o2)C2CCS(=O)(=O)C2)cc1 (stereo not drawn),3%,-1.4%,25,-17%,-9%,-9,10
CN(C)c1nc(Oc2ccc(N)cc2)nc(N(C)C)n1,14%,3.4%,-5,10%,-40%[inhibitor],1,-1.1
CC(C)CNc1oc(-c2ccc(F)cc2)nc1C#N,-4%,4.2%,0,1%,?,-3,3.2
CCOC(=O)CNC(=O)C1(c2ccccc2)CCCC1,25%,-2.0%,6,7%,17%,-1,-0.9
CCn1cc(C(=O)N[C@@H](CCSC)C(=O)NCCCOC)c(=O)c2cc3c(cc21)OCO3,5%,4.1%,?,5%,9%,nt,-1.9
Cc1ccc(CNC(=O)c2ccc(NC(=O)CCS(=O)(=O)c3cccs3)cc2)cc1,17%,-0.8%,6,-1%,-6%,-7,5.2
Clc1ccc(-n2nnnc2-c2ccno2)cc1,3%,nt,15,5%,18%,6,1.1
Cc1ccc(C(=O)N/C(=C\c2ccco2)C(=O)NCc2cccnc2)cc1,-27%,-10%,2,12%,-3%[15.4 µM],0,1.7
COc1ccccc1NC(=O)NC1CCCCCCC1,8%,0.3%,-12,0%,?,3,nt
CN(CCOc1ccc(-c2ccn(S(=O)(=O)c3c(Cl)cccc3Cl)n2)cc1)c1ccccn1,14%,-2.1%,13,-1%,-13%,-5,8.7
COc1ccc(CCNC(=O)C2CCN(C(=O)c3ccc(F)cc3)CC2)cc1,-2%,-1.0%,?,4%,-4%,-5,-0.2
Cc1cc2c(c(=O)n1Cc1ccccn1)C(C(C)C)C(C#N)=C(N)O2 (stereo not drawn),30%,-7.7%,5,10%,?,0,0.1
O=[N+]([O-])c1ccc(O)c(C=Nc2ccc3c(c2)OCO3)c1,-7%,nt,nt,-6%,11%[15.4 µM],0,5.8
Cc1oc2c(cc(NS(=O)(=O)c3ccc(Cl)cc3)c3ccccc32)c1C(=O)O,-26%,-1.8%,-2,-16%,?,-4,nt
COc1ccc(S(=O)(=O)Nc2nc3ccccc3nc2Nc2ccc3c(c2)OCO3)cc1,14%,nt,1,nt,nt,nt,3.4
COc1ccc(S(=O)(=O)Cc2ccc(C(=O)N3CCN(c4ccc(Cl)cc4)CC3)o2)cc1,-3%,0.9%,nt,?,-22%,1,-1.5
# Next part:
SMILES,Sfp PPTase inh,ClpP mod,TRPV1 potentiator,gsp antagonist,gsp agonist,CtBP-E1A blk,Menin MLL FP FL
Cc1ccc(C)c(C(=O)CN2C(=O)CCC2=O)c1,10%,-2.3%,10,0%[15.4 µM],-1%,-6,6.0
Cc1ncoc1C(=O)Nc1ncc([N+](=O)[O-])s1,-93%,nt,4,-25%,-9%[15.4 µM],0,0.0
COc1ccc(CNC(=O)c2cccc(NC(=O)c3ccccc3)c2)cc1,2%,nt,1,-4%,?,0,0.0
CCn1c(SCC(=O)Nc2ccc(NC(C)=O)cc2)nc2c1c(=O)n(C)c(=O)n2C,10%,nt,-1,7%,64%[15.4 µM],7,nt
O=C(O/N=C1/CCCc2occc21)c1ccc(F)cc1,11%,-0.8%,-1,12%,3%,nt,-5.4
CCOC(=O)C1CCN(C(=O)CCc2ccc(S(=O)(=O)NCC(C)C)cc2)CC1,18%,0.1%,2,-5%,-25%,nt,5.9
O=C(COC(=O)/C=C/c1cccc(F)c1)NC1CCCCC1,nt,0.4%,nt,nt,23%,2,nt
COc1ccc(OC)c(NC(=O)c2ccc(CN(c3cc(Cl)ccc3C)S(=O)(=O)c3ccccc3)cc2)c1,79µM*,-25%,-6,-4%,-89%[inhibitor],5,1.7
Cc1ccc(C(C(=O)NC2CCCC2)N(C(=O)c2csnn2)c2ccccc2)o1 (stereo not drawn),5%,0.0%,3,-15%,28%[15.4 µM],27,nt
CCOC(=O)CSc1nc(Nc2ccc3c(c2)OCO3)c2ccccc2n1,-1%,-0.7%,-10,?,11%,-20,3.3
Clc1ccc(CN=C(Nc2ccccc2)NC2CCCCC2)cc1,-8%,nt,-7,14%,0%[15.4 µM],0,-7.7
O=S(=O)(c1ccc(Br)s1)N1CCN(CCc2ccccc2)CC1,nt,1.2%,-12,3%,1%,-10,nt
CCOC(=O)C1=C(C)Nc2sc(C(=O)c3ccc(OC)cc3)c(N)c2C1c1ccc(C(=O)OC)cc1 (stereo not drawn),?,-3.5%,?,-6%,0%,17,?
